Bead autofluor: flagged as autofluorescent in microsphere protease counterscreen; compound autofluorescence counterscreen, microsphere flow cytometry; hits give high values; fluorescence intensity (test concentration not listed); 3.1% of 360,000 active;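 active means at least 3 SD above the mean of all compounds, about 16000 in these data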;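 further: 100 nL of 1 mM stock went into each well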
Mtb hypoxia rep: PubChem AID 1159583; M. tuberculosis hypoxia-regulated fluorescent reporter, fluorescence; fluorescence inhibition, % (concentration not given with the values); 0.1% of 300,000 active;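 active means 35 to 45% if threefold the growth effect, above 45% if 1.5-fold the growth effect; inactive means the rest, general growth blockers included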;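 further: wells of about 50 µL received 100 nL stock; 0% = vehicle wells and 100% = reference inhibitor wells; whole bacteria with a GFP reporter of the hypoxia response; strong numbers were not always called active; many hits fall short of the cut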
PrP 5UTR inh: inhibition of PrP 5' UTR reporter expression; cell-based PrP 5' UTR mRNA reporter, plate reader; inhibition, % (concentration not given with the values); 0.35% of 340,000 active; AID 488862, 2010;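 active means every replicate at 50% or more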;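 further: 0 = median of the neutral control wells; tested in H4 reporter cells; numbers are from one replicate; inactives centre near -14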
BJeLR viability: MLPCN primary cell-based screen for lethality selective to Ras in HRASV12 cells; 0.17% of 300,000 active; inhibition, % (concentration not given with the values); BJeLR (HRASV12) viability, CellTiter-Glo ATP luminescence, 48 h; reference of the scale not given here;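 active means replicate mean above 50%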;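 further: 50 nL library stock added to about 25 µL; numbers are from one replicate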
RN4220 kill: growth inhibition of S. aureus RN4220, primary screen, OD600 | 0.33% of 330,000 active | 16 h | inhibition, % (no concentration beside the values);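 active means z-score of -3 or lower and OD600 up to 0.18 on both plates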;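 further: plate controls were untreated cells for no effect and reference antibiotic for full effect; stock transfer was 100 nL into about 80 µL; one replicate is shown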
ugtP null kill: growth inhibition of ugtP-null S. aureus, primary screen, RN4220 ugtP deletion, OD600; 16 h; some inactives read as strong as hits; growth inhibition, % (no concentration beside the values); 0.54% of 330,000 active; AID 1259309, 2017;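 active means z-score under -3 and OD600 up to 0.15 on both plates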;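 further: plate controls were untreated wells for no effect and antibiotic for full effect; wells of about 80 µL received 100 nL stock; the first replicate is given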
Mtb hypoxia rep growth: further read-out of Mtb hypoxia rep, marked with its call; growth inhibition, %; measured here: M. tuberculosis growth (absorbance);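 0% = vehicle and 100% = reference antibiotic; read after six days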
The depositor's hits bear a star; · = no result given.

SMILES	Bead autofluor	Mtb hypoxia rep	Mtb hypoxia rep growth	PrP 5UTR inh	BJeLR viability	RN4220 kill	ugtP null kill
Cc1ccc(S(=O)(=O)Nc2ccccc2C(=O)NCc2cccnc2)cc1	4869	1	-1	-20	6	-0.3	-1
NC(=O)c1nsc(C(=O)N(Cc2ccc(F)cc2)C(C(=O)NC2CCCC2)c2ccco2)c1N (stereo not drawn)	3733	7	0	-3	-7	3.7	5
Cc1ccc(/C=C2/Sc3ccc(C(=O)N4CCC5(CC4)OCCO5)cc3NC2=O)cc1	5495	·	·	-5	-9	·	·
O=C(CCc1nc(-c2ccccc2)no1)Nc1cccnc1	5582	-10	-7	-23	-5	-1.4	2
CC1=C(C(=O)Nc2ccc(C)cc2C)C(c2ccc(C)o2)NC(=S)N1 (stereo not drawn)	2467	-1	-2	-3	6	-5.0	-6
O=C(NCC1CCCCC1)c1cccnc1Cl	6951	13	2	-12	-8	-0.2	8
CCCC(=O)N(c1ccc2oc(C)c(C(C)=O)c2c1)S(=O)(=O)c1ccc(C)c([N+](=O)[O-])c1	2147	2	-14	-110	4	4.7	0
O=C(CSc1ccccc1)Nc1ccc2c(c1)C(=O)NC2=O	4166	8	2	-19	-6	0.9	4
CCCC(=O)Nc1ccc2nn(-c3ccc(OC)cc3)nc2c1	3579	11	7	-56	-11	6.3	13
CCOP(=O)(OCC)/C(C#N)=C/c1cc(OC)ccc1OC	2953	7	5	-7	-8	1.1	0
Cn1ccnc1SCC(=O)c1ccc(O)cc1	4990	-9	0	-27	3	3.5	5
Cc1ccc(S(=O)(=O)N2CCOCC2)cc1NC(=O)CN1CCN(C)CC1	8553	9	-7	-21	·	1.7	0
COc1ccc(-c2nc(-c3ccc(Br)cc3)no2)c(OC)c1	19523*	-3	4	-148	8	-9.5	-9
CC(Sc1nc(NCc2ccccc2)nc(N(C)C)n1)C(=O)Nc1ccccc1 (stereo not drawn)	11475	-10	1	·	2	-2.7	-24
O=C(NN=C/C=C\c1ccccc1[N+](=O)[O-])c1cc(-c2ccccc2)nc2ccccc12	·	4	2	·	·	-6.7	-1
Clc1ccccc1N=C1NN=C(c2cccs2)CS1	4536	0	11	-72	5	-1.5	2
CCC(CC)c1nnc(NC(=O)CCNC(=O)c2ccccc2Cl)s1	4298	7	10	-19	-12	2.2	-3
CCN1CCN(CC(O)COc2ccc3c(c2)CCC3)CC1 (stereo not drawn)	2459	-1	-1	-5	-23	2.4	-1
COc1ccc(CN2CCC(CO)(CCOc3ccccc3)CC2)cc1C	4120	13	8	-11	3	3.2	4
O=c1ccn(CCOc2ccc(Cl)cc2)c(=O)[nH]1	3609	·	·	-12	1	2.1	11
CC(C)(C)C1CCC(=NNC(=O)C(=O)NCc2ccco2)CC1 (stereo not drawn)	3210	9	-2	-19	-14	-1.0	3
CC1(c2nnc(-c3ccncc3)o2)CC(c2ccccc2)=NO1 (stereo not drawn)	3230	·	·	6	-2	·	·
COc1ccccc1CNC(=O)c1oc2ccc(S(=O)(=O)N3CCCC3)cc2c1C	4780	·	·	14	-5	-2.6	-4
CC(OC(=O)Nc1cccc(Cl)c1)C(=O)O (stereo not drawn)	3598	·	·	-5	0	·	·
CCOc1ccc(C(=O)NCC(=O)N2CCC(C)CC2)cc1OCC	4418	11	1	-20	7	12	3

An excerpt of these results, as a markdown table.
| SMILES | Bead autofluor | Mtb hypoxia rep | Mtb hypoxia rep growth | PrP 5UTR inh | BJeLR viability | RN4220 kill | ugtP null kill |
| --- | --- | --- | --- | --- | --- | --- | --- |
| CC1=C(C(=O)Nc2ccc(C)cc2C)C(c2ccc(C)o2)NC(=S)N1 (stereo not drawn) | 2467 | -1 | -2 | -3 | 6 | -5.0 | -6 |
| O=C(NCC1CCCCC1)c1cccnc1Cl | 6951 | 13 | 2 | -12 | -8 | -0.2 | 8 |
| CCCC(=O)N(c1ccc2oc(C)c(C(C)=O)c2c1)S(=O)(=O)c1ccc(C)c([N+](=O)[O-])c1 | 2147 | 2 | -14 | -110 | 4 | 4.7 | 0 |
| O=C(CSc1ccccc1)Nc1ccc2c(c1)C(=O)NC2=O | 4166 | 8 | 2 | -19 | -6 | 0.9 | 4 |
| CCCC(=O)Nc1ccc2nn(-c3ccc(OC)cc3)nc2c1 | 3579 | 11 | 7 | -56 | -11 | 6.3 | 13 |

(continued)
SMILES	Bead autofluor	Mtb hypoxia rep	Mtb hypoxia rep growth	PrP 5UTR inh	BJeLR viability	RN4220 kill	ugtP null kill
COC(=O)c1[nH]c2ccc(F)cc2c1NC(=O)CCN1CC(C)OC(C)C1 (stereo not drawn)	4316	7	1	-17	2	0.1	1
O=C(Nc1ccc(Cl)c(Cl)c1)Nc1ccccc1NS(=O)(=O)c1cccs1	2267	-3	5	-23	-3	-6.4	-18
COC(=O)c1ccccc1NC(=O)CN1CCCCCC1	4336	20	6	-7	-11	4.4	1
COC(=O)[C@]1(Cc2ccccc2)N[C@H](c2ccc(-c3ccc(F)cc3)cc2)[C@@H]2C(=O)N(C)C(=O)[C@@H]21	7898	·	·	-29	-3	·	·
N#Cc1ccccc1OCCOCCNC1CCCC1	2935	0	4	-17	-1	-1.5	1
CN(CC(=O)Nc1cccc(F)c1)CC(=O)Nc1cc(S(=O)(=O)N2CCOCC2)ccc1Cl	3983	-2	2	-28	·	4.9	13
CCN(CC)c1ccc(C(=O)O)cc1	2906	5	-2	-11	5	5.7	3
O=C(CN1CCN(c2ccccn2)CC1)Nc1cccc(Br)c1	3026	-1	9	-22	-10	0.2	-3
CC(C)C(=O)NC(=S)Nc1ccc(S(=O)(=O)Nc2nccs2)cc1	4586	5	11	-25	-2	6.1	41
CC(C)[C@H](NC(=O)c1ccccc1F)C(=O)Nc1ccc(F)c(F)c1	3247	16	7	-1	-7	3.3	7
COc1ccc(CCN(C)C/C=C/c2ccccc2[N+](=O)[O-])cc1OC	3848	12	-1	-18	1	5.3	10
CCCC(=O)Nc1ccc(Br)c(Cl)c1	2808	·	·	1	4	3.2	-1
COc1cccc(NC(=O)Nc2cc(C(=O)O)ccc2N2CC3CC(C2)c2cccc(=O)n2C3)c1 (stereo not drawn)	5508	2	5	-6	2	2.5	8
COc1ccc(C(=O)NNC2CC(=O)N(Cc3ccc(Cl)cc3)C2=O)cc1OC (stereo not drawn)	2122	10	-1	-1	3	3.5	1
CCc1c(C)nc2ncnn2c1N1CCC(C(=O)Nc2ccccc2)CC1	10639	6	10	-19	1	0.5	1
CC(=O)N1CCN(C(=O)c2ccc(OC3CCN(Cc4ccccn4)CC3)cc2)CC1	6751	·	·	3	5	·	·
Cc1nc2ccc(Cl)cc2c(-c2ccccc2F)c1CC(=O)O	1953	1	9	-5	-12	9.4	6
O=S(=O)(c1ccccc1F)N1CCN(CCOc2ccccc2)CC1	·	8	2	-9	·	-7.3	31
O=C(Cc1cccc2ccccc12)Nc1ccc2c(c1)C(=O)NC2=O	2273	7	2	-12	-3	1.4	-1
C=CCN(c1ccc(C(N)=O)cc1)S(C)(=O)=O	2873	14	9	-1	3	-15	-4
CCCCCCC(NC(=O)c1ccc(C)cc1)C(=O)O (stereo not drawn)	3248	-3	-3	-7	·	6.1	8
COc1ccc2c(c1)CCC2=NNC(=O)c1ccccc1	·	0	-6	·	·	3.2	-2
C=CCN=C(NC#N)SCc1ccccc1Cl	4805	·	·	-5	·	-0.5	-2
COc1nnc(-c2ccc(C)c(S(=O)(=O)NC(C)C)c2)c2ccccc12	3701	1	-7	-17	-7	4.1	7
O=C(c1ccccc1)c1ccc[nH]1	3965	1	15	-12	·	1.5	-12
(continued)
SMILES	Bead autofluor	Mtb hypoxia rep	Mtb hypoxia rep growth	PrP 5UTR inh	BJeLR viability	RN4220 kill	ugtP null kill
Cn1c(Cn2c(=O)sc3ccccc32)nnc1SCC(N)=O	6016	·	·	0	-2	-1.0	1
Cc1ccc2nc(-c3ccncc3)cc(C(=O)NCc3ccccc3F)c2c1	5727	-2	15	-12	-6	0.8	2
CC(=O)c1ccc2c(c1)c1ccccc1n2CC(C)C	2904	·	·	12	-9	14	-3
C1=C(c2ccccc2)Nc2nnnn2C1	4588	·	·	-9	2	-0.3	5
Fc1ccc(CNn2cnnc2SCc2ccc(F)cc2)cc1	6004	-24	0	-2	10	-3.8	-11
N/C(=N\OC(=O)c1ccccc1[N+](=O)[O-])c1ccccn1	5123	·	·	18	-2	·	·
Clc1cccc(Cl)c1CSc1nnc([C@@H]2CCCN2)o1	4956	10	11	-21	-2	4.5	39
CC(=O)Nc1ccc(SCCN2CCC(C(C)(C)C)CCC2=O)cc1 (stereo not drawn)	·	7	11	·	·	1.8	-21
Cn1cccc1C(C#N)c1ccccc1C#N (stereo not drawn)	4074	11	1	-25	-10	6.9	1
O=C(Nc1cccc(Oc2ccc3c(c2)C(=O)NC3=O)c1)c1cccs1	2041	-6	4	-4	-12	14	-13
O=C(NC1=NCCS1)C1CC(=O)N(c2ccc(F)cc2)C1 (stereo not drawn)	4480	-5	2	-3	-6	4.6	6
CCNC(=O)C1CCCN1C(=O)C(CCCN=C(N)N)NC(=O)C(CC(C)C)NC(=O)C(Cc1cn(Cc2ccccc2)cn1)NC(=O)C(Cc1ccc(O)cc1)NC(=O)C(CO)NC(=O)C(Cc1c[nH]c2ccccc12)NC(=O)C(Cc1cnc[nH]1)NC(=O)C1CCC(=O)N1 (stereo not drawn)	4274	10	15	·	2	3.2	1
CCOC(=O)C1=C(C)N(C[C@@H]2CC[C@@H](Cc3ccc(-c4ccccc4)cc3)O2)C(=O)NC1c1ccc(C(F)(F)F)cc1 (stereo partly drawn)	3815	-12	-9	-3	·	-3.6	-1
O=C(N/N=C/c1ccccc1OCc1ccccc1)c1cccs1	2027	·	·	-22	18	·	·
CCC(OC(=O)c1nsc(Cl)c1Cl)C(=O)NCC1CCCO1 (stereo not drawn)	3580	9	4	-19	-3	-3.1	4
COc1cccc(N2CCN(C(=O)c3ccc4ccccc4c3)CC2)c1	4648	15	5	-5	·	7.6	-5
Cc1nc(NC(=O)CSc2ccccc2N)sc1C	·	-3	2	·	-6	7.4	0
CCOc1ccc(Nc2cc(C)nc(-n3nc(C)cc3C)n2)cc1	3229	-4	11	38	31	-2.6	9
COc1cccc(OCc2ccc(C(=O)NCC3CCCO3)cc2)c1 (stereo not drawn)	2462	-3	4	-22	2	-4.5	4
O=C(c1ccsc1)N1CCCC(N2CCN(c3cccc(C(F)(F)F)c3)CC2)C1 (stereo not drawn)	5927	5	-2	-15	2	3.9	-2
CC(=O)c1sc(NC(=O)CS(=O)(=O)c2ccccc2)nc1-c1ccccc1	6146	6	8	-20	1	5.1	2
CC(C)c1cccc(-c2ccc3c(c2)S(=O)(=O)c2cccc(C(=O)O)c2C3=O)c1	4152	3	9	-16	·	1.5	-3
O=C(Nc1ccccc1)c1nc[nH]c1C(=O)NCCN(CCNC(=O)c1[nH]cnc1C(=O)Nc1ccccc1)CCNC(=O)c1[nH]cnc1C(=O)Nc1ccccc1	2874	15	8	-19	·	3.8	-2
Cn1c(SCC(=O)N2CCc3ccccc32)nnc1-c1ccc(S(=O)(=O)N2CCCC2)cc1	2505	-8	0	14	-2	-0.5	-4
O=C(NCc1ccc2c(c1)OCO2)c1ccc(COc2cccc(Cl)c2)o1	3288	3	8	-19	-5	-8.7	3
Additional compounds
SMILES	Bead autofluor	Mtb hypoxia rep	Mtb hypoxia rep growth	PrP 5UTR inh	BJeLR viability	RN4220 kill	ugtP null kill
O=C(c1ccc2nc3ccc(Cl)cc3c(=O)n2c1)N1CCOCC1	21084*	0	5	-18	-3	4.8	3
COc1ccc(NC(=O)c2cc3c([nH]c4ccccc43)c(C)n2)cc1	1907	2	6	-23	-2	-2.7	-18
COc1ccc(/C=N/Nc2nc(Nc3ccccc3)nc(N3CCCC3)n2)cc1[N+](=O)[O-]	4416	·	·	-67	6	·	·
COc1ccc(N2CCN(C(=O)CN3C(=O)COc4ccccc43)CC2)cc1	5919	-5	-1	-35	4	4.4	2
Cc1cc(C)c(N)c(C(=O)O)c1	3714	5	0	-23	9	5.6	10
CCN(Cc1ccccc1)C(=O)CCc1nc(CN2CCN(C(=O)c3ccc([N+](=O)[O-])cc3)CC2)no1	6210	-9	-7	-16	1	2.2	4
CCC1=C(OC(=O)N(CC)CC)N2C(=O)OC(=NCc3ccccc3)[C@]2(C)C2C1=CCC1C(=O)N(c3ccccc3)C(=O)C12 (stereo partly drawn)	·	1	4	·	·	4.6	2
COc1ccc(C2=NN(C(=O)CSc3nc4ccccc4s3)C(c3ccc(OC)cc3)C2)cc1 (stereo not drawn)	2482	14	5	1	11	1.0	-7
Cc1ccc(C(=O)c2ccccc2C(=O)O)c(O)c1	10681	18	9	-10	-9	9.7	11

Bioassay records as filed in PubChem.
